# Source: PubChem BioAssay (Broad Institute)
# A1 apoptosis 2 – A1 inhibition read as caspase activation | MEF A1-2A-BIM cells, caspase-Glo luminescence, 3 h; percent of clofoctol response, DMSO zero | caspase activation, % (concentration not given with the values) | 24,000 tested, under 10 active | AID 2465; in the data active = caspase activation above about 5.9%;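 also: wells of about 30 µL received 50 nL stock; the first replicate is given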
#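 Material: mouse embryonic fibroblasts co-expressing A1 and BIM (A1-2A-BIM), primed for A1 dependence / Quantity: 2500 cells/well / Buffer or medium: RPMI-1640 growth medium with 10% FBS / Doses: 50 nL compound per well, pinned / Schedule: 3 h compound exposure at 37 °C / Signal: Caspase-Glo luminescence (DEVD substrate) / Measure: Caspase-3/7 activation, seen as rise in luminescence signal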
# The depositor's hits bear a star. An excerpt, so the mix of outcomes need not match the whole.
smiles	A1 apoptosis 2
C[C@@H]1CCCCO[C@@H](CN(C)S(=O)(=O)c2cccs2)[C@H](C)CN([C@H](C)CO)C(=O)c2cc(NC(=O)CCC(F)(F)F)ccc2O1	1.5
C[C@H](CO)N1C[C@H](C)[C@@H](CN(C)C(=O)Nc2ccc(F)cc2)Oc2c(NC(=O)Nc3ccc(F)cc3)cccc2C1=O	-0.1
C[C@H]1CCCCO[C@H](CN(C)Cc2ccccc2)[C@@H](C)CN([C@@H](C)CO)C(=O)c2cc(NC(=O)c3ccccc3)ccc2O1	0.4
C[C@@H]1CN([C@@H](C)CO)C(=O)c2cccc(NS(=O)(=O)c3cccs3)c2O[C@@H]1CN(C)S(=O)(=O)c1ccc(F)cc1	-0.4
CC(C)NC(=O)N(C)C[C@@H]1OCCCC[C@H](C)Oc2ccc(NS(=O)(=O)c3ccccc3)cc2C(=O)N([C@H](C)CO)C[C@@H]1C	-0.2
C[C@H](CO)N1C[C@H](C)[C@H](CN(C)Cc2ccccc2)OCc2cn(nn2)CCCC1=O	-0.4
C[C@@H]1CN([C@@H](C)CO)C(=O)c2cc(NC(=O)Nc3cccc4ccccc34)ccc2O[C@H]1CN(C)C(=O)Nc1cccc2ccccc12	0.6
Cc1noc(C)c1NC(=O)N(C)C[C@H]1Oc2c(NC(=O)c3nc4ccccc4s3)cccc2C(=O)N([C@H](C)CO)C[C@@H]1C	0.5
COc1ccc(CN(C)C[C@H]2Oc3ccc(NC(=O)Nc4cccc5ccccc45)cc3CC(=O)N([C@@H](C)CO)C[C@H]2C)cc1	0.9
C[C@@H]1CN([C@H](C)CO)C(=O)c2cc(NC(=O)c3ccccc3)ccc2O[C@@H](C)CCCCO[C@@H]1CN(C)Cc1ccncc1	0.3
C[C@H](CO)N1C[C@H](C)[C@H](CN(C)C(=O)Nc2ccc3c(c2)OCCO3)OCc2cnnn2CCCC1=O	-1.2
C[C@H](CO)N1C[C@H](C)[C@H](CN(C)C(=O)Nc2ccc(C(F)(F)F)cc2)Oc2ccc(NS(C)(=O)=O)cc2C1=O	-1.0
Cc1noc(C)c1NC(=O)N(C)C[C@@H]1OCCCC[C@@H](C)Oc2ccc(NC(=O)Nc3cccc4ccccc34)cc2C(=O)N([C@@H](C)CO)C[C@@H]1C	1.0
C[C@H](CO)N1C[C@H](C)[C@H](CN(C)S(=O)(=O)c2ccc(Cl)cc2)OCCCC[C@H](C)Oc2ccc(NC(=O)C3CCCCC3)cc2C1=O	-0.2
Cc1noc(C)c1S(=O)(=O)Nc1ccc2c(c1)C(=O)N([C@H](C)CO)C[C@@H](C)[C@H](CN(C)Cc1ccccc1)OCCCC[C@H](C)O2	-1.3
C[C@@H]1CN([C@H](C)CO)C(=O)Cc2cc(NS(=O)(=O)c3cccs3)ccc2O[C@@H]1CN(C)Cc1ccc2c(c1)OCO2	0.2
Cc1ccc(S(=O)(=O)Nc2ccc3c(c2)C(=O)N([C@H](C)CO)C[C@H](C)[C@@H](CN(C)C(=O)CCC(F)(F)F)OCCCC[C@H](C)O3)cc1	-0.4
COc1ccc(S(=O)(=O)Nc2ccc3c(c2)C(=O)N([C@@H](C)CO)C[C@H](C)[C@H](CN(C)S(=O)(=O)c2cccs2)OCCCC[C@H](C)O3)cc1	-0.9
C[C@H]1CN([C@@H](C)CO)C(=O)Cc2cc(NC(=O)C3CCCCC3)ccc2O[C@@H]1CN(C)C(=O)Nc1ccccc1	0.2
C[C@H]1CN([C@@H](C)CO)C(=O)c2cccc(NC(=O)NC3CCCCC3)c2O[C@H]1CN(C)Cc1ccc(C(=O)O)cc1	0.0

smiles	A1 apoptosis 2
C[C@H](CO)N1C[C@H](C)[C@@H](CN(C)CC2CC2)Oc2ccc(NC(=O)Cc3cn(C)c4ccccc34)cc2CC1=O	1.1
Cc1noc(C)c1NC(=O)N(C)C[C@H]1Oc2ccc(NC(=O)Nc3ccc4c(c3)OCO4)cc2C(=O)N([C@H](C)CO)C[C@@H]1C	-1.6
COc1ccc(CN(C)C[C@@H]2OCCCC[C@@H](C)Oc3ccc(NS(=O)(=O)c4ccccc4)cc3C(=O)N([C@H](C)CO)C[C@H]2C)cc1	0.6
Cc1noc(C)c1S(=O)(=O)Nc1ccc2c(c1)CC(=O)N([C@H](C)CO)C[C@H](C)[C@H](CN(C)C(=O)Nc1ccc(F)cc1)O2	-0.5
CC(C)NC(=O)Nc1ccc2c(c1)C(=O)N([C@H](C)CO)C[C@@H](C)[C@H](CN(C)C(=O)Nc1ccc(C(F)(F)F)cc1)OCCCC[C@H](C)O2	1.8
COc1ccc(NC(=O)N(C)C[C@H]2Oc3ccc(NC(=O)Nc4ccccc4)cc3C(=O)N([C@@H](C)CO)C[C@@H]2C)cc1	-1.3
C[C@@H]1CN([C@@H](C)CO)C(=O)Cc2cc(N(C)C)ccc2O[C@H]1CN(C)CC1CC1	-0.7
C[C@H]1CN([C@@H](C)CO)C(=O)c2cccc(NC(=O)Nc3ccc4c(c3)OCO4)c2O[C@@H]1CN(C)C(=O)Nc1ccccc1	-1.2
COCCCNC(=O)[C@]1(Cc2ccccc2CN=[N+]=[N-])N=C(c2ccc(OCCCO)cc2)O[C@@H]1c1ccccc1	-0.7
CCCN(C)C[C@H]1OCCCC[C@H](C)Oc2ccc(NS(C)(=O)=O)cc2C(=O)N([C@H](C)CO)C[C@H]1C	0.6
C[C@@H]1CN([C@H](C)CO)C(=O)c2cc(NS(=O)(=O)c3ccccc3)ccc2O[C@@H]1CN(C)C	-0.8
C[C@@H]1CN([C@@H](C)CO)C(=O)c2cccc(NC(=O)Nc3ccc4c(c3)OCO4)c2O[C@@H]1CN(C)C	0.9
COc1ccc(S(=O)(=O)Nc2ccc3c(c2)C(=O)N([C@@H](C)CO)C[C@H](C)[C@H](CN(C)Cc2ccncc2)OCCCC[C@@H](C)O3)cc1	0.1
Cc1noc(C)c1NC(=O)Nc1ccc2c(c1)C(=O)N([C@H](C)CO)C[C@@H](C)[C@H](CN(C)C(=O)Nc1ccc(F)cc1)OCCCC[C@H](C)O2	0.7
C[C@H](CO)N1C[C@H](C)[C@@H](CN(C)S(=O)(=O)c2cn(C)cn2)Oc2c(NC(=O)Nc3ccc(C(F)(F)F)cc3)cccc2C1=O	0.8
C[C@H]1CN([C@@H](C)CO)C(=O)c2cccc(NC(=O)c3cnccn3)c2O[C@@H]1CN(C)S(=O)(=O)c1ccc(F)cc1	0.5
Cc1cc(C(=O)Nc2cccc3c2O[C@@H](CN(C)C(=O)NC2CCCCC2)[C@H](C)CN([C@@H](C)CO)C3=O)n(C)n1	0.5
C[C@H]1CN([C@@H](C)CO)C(=O)c2cc(NC(=O)NC3CCCCC3)ccc2O[C@H]1CN(C)Cc1ccc(Cl)c(Cl)c1	-0.4
Cc1ccc(S(=O)(=O)Nc2ccc3c(c2)C(=O)N([C@@H](C)CO)C[C@H](C)[C@@H](CN(C)C(=O)Nc2ccc(C(F)(F)F)cc2)OCCCC[C@H](C)O3)cc1	0.3
C[C@@H]1CN([C@H](C)CO)C(=O)c2cc(NS(C)(=O)=O)ccc2O[C@@H](C)CCCCO[C@H]1CN(C)S(=O)(=O)c1ccccc1	-0.5

smiles	A1 apoptosis 2
COc1ccc(CN(C)C[C@@H]2OCCCC[C@@H](C)Oc3ccc(NC(=O)NC(C)C)cc3C(=O)N([C@H](C)CO)C[C@H]2C)cc1	-0.6
Cc1noc(C)c1S(=O)(=O)N(C)C[C@@H]1Oc2ccc(NS(=O)(=O)c3ccc(Cl)cc3)cc2C(=O)N([C@H](C)CO)C[C@@H]1C	2.9
CNC[C@H]1Oc2c(NC(=O)C3CCOCC3)cccc2C(=O)N([C@H](C)CO)C[C@@H]1C	-0.3
C[C@H]1CCCCO[C@H](CN(C)C(=O)Nc2ccc(F)cc2)[C@@H](C)CN([C@@H](C)CO)C(=O)c2cc(NS(=O)(=O)c3ccc(Cl)cc3)ccc2O1	-0.6
C[C@@H]1CN([C@H](C)CO)C(=O)c2cc(NC(=O)Cc3ccccc3)ccc2O[C@@H]1CN(C)Cc1ccccc1	-0.4
C[C@H]1CN([C@@H](C)CO)C(=O)c2cc(NC(=O)CCCCCC(=O)Nc3ccccc3N)ccc2O[C@@H]1CN(C)C(=O)Nc1ccc(F)cc1	-0.1
CC(C)NC(=O)N(C)C[C@@H]1OCCCC[C@@H](C)Oc2ccc(NC(=O)Nc3ccccc3)cc2C(=O)N([C@@H](C)CO)C[C@@H]1C	0.5
Cc1noc(C)c1NC(=O)Nc1ccc2c(c1)C(=O)N([C@@H](C)CO)C[C@@H](C)[C@@H](CN(C)S(=O)(=O)c1ccccc1)O2	-1.5
C[C@@H]1CN([C@@H](C)CO)C(=O)c2cc(NC(=O)CCC(F)(F)F)ccc2O[C@@H](C)CCCCO[C@H]1CN(C)S(=O)(=O)c1cccs1	1.0
Cc1noc(C)c1S(=O)(=O)N(C)C[C@@H]1Oc2ccc(NS(=O)(=O)c3cccs3)cc2CC(=O)N([C@@H](C)CO)C[C@H]1C	-1.0
C[C@@H]1CN([C@@H](C)CO)C(=O)c2cc(NC(=O)NC3CCCCC3)ccc2O[C@H]1CN(C)S(C)(=O)=O	0.3
C[C@@H]1CN([C@@H](C)CO)C(=O)c2cccc(NC(=O)c3ccc(-c4nccs4)cc3)c2O[C@@H]1CN(C)C(=O)Nc1cccc2ccccc12	-0.7
C[C@@H]1CCCCO[C@H](CN(C)C(=O)Nc2ccc(C(F)(F)F)cc2)[C@@H](C)CN([C@@H](C)CO)C(=O)c2cc(NC(=O)Cc3ccccc3)ccc2O1	-1.2
Cc1ccc(S(=O)(=O)Nc2ccc3c(c2)C(=O)N([C@H](C)CO)C[C@@H](C)[C@H](CN(C)S(=O)(=O)c2ccc(C)cc2)OCCCC[C@@H](C)O3)cc1	0.3
C[C@H](CO)N1C[C@H](C)[C@H](CN(C)S(=O)(=O)c2ccc(F)cc2)Oc2ncc(-c3cccc(F)c3)cc2C1=O	0.2
C[C@H](CO)N1C[C@H](C)[C@H](CN(C)S(=O)(=O)c2ccc(F)cc2)Oc2ncc(C#Cc3ccc(F)cc3)cc2C1=O	-0.8
C[C@H](CO)N1C[C@H](C)[C@@H](CN(C)C)Oc2ccc(NS(=O)(=O)c3ccc(Cl)cc3)cc2C1=O	0.3
C[C@@H]1CN([C@H](C)CO)C(=O)c2cc(NC(=O)Nc3ccc(F)cc3)ccc2O[C@@H](C)CCCCO[C@@H]1CN(C)Cc1ccc(C(F)(F)F)cc1	-0.9
C[C@@H]1CN([C@@H](C)CO)C(=O)c2cc(NC(=O)C3CC3)ccc2O[C@H]1CN(C)C(=O)Nc1ccc(C(F)(F)F)cc1	0.1
C[C@H](CO)N1C[C@H](C)[C@H](CN(C)C(=O)Nc2ccc3c(c2)OCO3)Oc2ccc(NS(=O)(=O)c3cn(C)cn3)cc2CC1=O	1.3

# In the list so far, 6 contain an aryl methoxy group.
smiles	A1 apoptosis 2
COc1ccc(CN(C)C[C@H]2Oc3ccc(NC(=O)Nc4cccc5ccccc45)cc3CC(=O)N([C@@H](C)CO)C[C@H]2C)cc1	0.9
COc1ccc(S(=O)(=O)Nc2ccc3c(c2)C(=O)N([C@@H](C)CO)C[C@H](C)[C@H](CN(C)S(=O)(=O)c2cccs2)OCCCC[C@H](C)O3)cc1	-0.9
COc1ccc(CN(C)C[C@@H]2OCCCC[C@@H](C)Oc3ccc(NS(=O)(=O)c4ccccc4)cc3C(=O)N([C@H](C)CO)C[C@H]2C)cc1	0.6
COc1ccc(NC(=O)N(C)C[C@H]2Oc3ccc(NC(=O)Nc4ccccc4)cc3C(=O)N([C@@H](C)CO)C[C@@H]2C)cc1	-1.3
COc1ccc(S(=O)(=O)Nc2ccc3c(c2)C(=O)N([C@@H](C)CO)C[C@H](C)[C@H](CN(C)Cc2ccncc2)OCCCC[C@@H](C)O3)cc1	0.1
COc1ccc(CN(C)C[C@@H]2OCCCC[C@@H](C)Oc3ccc(NC(=O)NC(C)C)cc3C(=O)N([C@H](C)CO)C[C@H]2C)cc1	-0.6

# (further entries)
smiles	A1 apoptosis 2
Cc1noc(C)c1NC(=O)Nc1cccc2c1O[C@@H](CN(C)Cc1ccc(C(=O)Nc3ccccc3N)cc1)[C@@H](C)CN([C@H](C)CO)C2=O	0.2
CNC[C@H]1Oc2ccc(NC(=O)Nc3ccc(OC)cc3)cc2CC(=O)N([C@@H](C)CO)C[C@H]1C	-0.4
C[C@H](CO)N1C[C@H](C)[C@H](CN(C)C(=O)c2ccncc2)OCCCC[C@H](C)Oc2ccc(NS(C)(=O)=O)cc2C1=O	0.2
C[C@@H]1CCCCO[C@H](CN(C)Cc2ccc3c(c2)OCO3)[C@H](C)CN([C@H](C)CO)C(=O)c2cc(NS(=O)(=O)c3cn(C)cn3)ccc2O1	-0.8
C[C@@H]1CN([C@@H](C)CO)C(=O)Cc2cc(NS(=O)(=O)c3cccs3)ccc2O[C@H]1CN(C)C	0.2
Cc1noc(C)c1S(=O)(=O)N(C)C[C@@H]1OCCCC[C@H](C)Oc2ccc(NS(=O)(=O)c3cccs3)cc2C(=O)N([C@H](C)CO)C[C@H]1C	0.2
C[C@@H]1CN([C@H](C)CO)C(=O)c2cccc(NC(=O)c3ccncc3)c2O[C@@H]1CN(C)S(=O)(=O)c1cn(C)cn1	0.4
C[C@@H]1CN([C@H](C)CO)C(=O)Cc2cc(NC(=O)CCN3CCOCC3)ccc2O[C@H]1CN(C)C(=O)Nc1ccccc1	1.0
CNC[C@H]1Oc2ccc(NC(=O)Nc3ccc(F)cc3)cc2C(=O)N([C@H](C)CO)C[C@@H]1C	0.7
O=C(N/N=C/C=C/c1ccccc1)c1ccccc1O	-1.7
C[C@H]1CN([C@@H](C)CO)C(=O)CCCn2cc(nn2)CO[C@@H]1CN(C)C(=O)Nc1ccc2c(c1)OCO2	-0.7
